# Assay outcomes (PubChem)
# Sfp PPTase inh: blocks B. subtilis Sfp PPTase activity | Q9F4F7 | Biochemical Sfp PPTase activity, qHTS | AID 1490 | hit rate 3.5% among 310,000 | Potency, µM, inactives show max response, negative = inhibition, actives largely listed as inhibitors; active = well fitted inhibition curve with a large enough effect; inconclusive = small, poorly fitted or top-dose-only effect, or another doubt; inactive = no such curve, though single readings can be large or run the other way;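 note: the enzyme is Sfp with the accession as filed and its product quenches rhodamine fluorescence; potency is the fitted concentration of half-maximal effect; 0% = enzyme reaction without inhibitor and -100% = no enzyme wells; top concentration of the series not given in the record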
#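 Reaction rates are the 30-min fluorescence difference (ex 525, em 598 nm) in wells containing 15 nM Sfp, 5 uM rhodamine-CoA and 12.5 uM BHQ-2-YbbR at pH 7.6 with 10 mM MgCl2.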
# D2 agonist: human D2 receptor agonism in beta-arrestin assay | P14416 | DiscoveRx PathHunter D2 beta-arrestin, luminescence, 90 min; 100% = 57 uM dopamine signal | activation, % (test concentration not listed) | hit rate 0.084% among 360,000 | AID 624465; in the data active = activation above about 40%; inconclusive = about 15% to 40%; inactive = below about 15%; note: compound concentration not given in the record; the text of the record calls up to 30% inactive
# Target sequence (P14416 whole entry, looked up): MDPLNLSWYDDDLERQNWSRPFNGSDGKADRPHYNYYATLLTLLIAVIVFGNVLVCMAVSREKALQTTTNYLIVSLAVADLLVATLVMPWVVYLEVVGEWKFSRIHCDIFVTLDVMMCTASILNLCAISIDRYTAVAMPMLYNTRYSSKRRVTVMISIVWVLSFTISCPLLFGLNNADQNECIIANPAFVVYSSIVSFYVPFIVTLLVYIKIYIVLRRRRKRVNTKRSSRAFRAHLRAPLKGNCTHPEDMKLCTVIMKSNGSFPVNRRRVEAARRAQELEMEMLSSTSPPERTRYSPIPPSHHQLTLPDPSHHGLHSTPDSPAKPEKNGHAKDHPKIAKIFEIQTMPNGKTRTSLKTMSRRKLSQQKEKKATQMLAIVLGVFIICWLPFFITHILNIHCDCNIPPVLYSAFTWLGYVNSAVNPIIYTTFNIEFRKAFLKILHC
#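 DiscoveRx PathHunter D2 beta-arrestin cells (2,100/well) attached overnight, then compound-stimulated 90 min at 37 C in HBSS/10 mM HEPES/0.1% Tween-20 buffer; beta-galactosidase complementation read by luminescence after 1 h at ambient temperature. Dopamine 57 uM final (EC100) as control.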
# Six1-Eya2 inh: Six1/Eya2 interaction inhibition; AID 651725; activity change, % (concentration not given with the values); hit rate 0.56% among 360,000; AlphaScreen GST-Six1/His-Eya2 binding, biochemical; hits give low values; control for the full effect not named in the record; in the data active = activity change below about -65%; inconclusive = about -30% to -65%; inactive = above about -30%; note: % is set by controls: 0 for no effect and ±100 for the full control effect
#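 GST-Six1 + His-Eya2 (5X stock: 250/500 nM); Tris pH 8.0, 300 mM NaCl, 0.05% BSA, 0.02% Tween 20; GSH donor/Ni acceptor beads; 1 h 37 °C dark; AlphaScreen readout.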
# TRPV1 potentiator: enhances activation of the human vanilloid receptor TRPV1; Q8NER1; TRPV1-expressing cells, Fluo-8 calcium influx, capsaicin EC20 potentiation; host cell line not named in the record; control for the full effect not named in the record; potentiation, % at 8.33 µM; hit rate 0.02% among 320,000; active means potentiation above 80%; inconclusive means 30% to 80%; inactive means below 30%; note: 0% is about no effect
#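 Fluo-8 calcium influx in TRPV1-expressing cells, kinetic read (ex 480/em 520 nm). Compound added and read 3 min for agonist activity, followed by capsaicin at EC20 final and 2 min further read for enhancement.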
# D2 potentiator: positive allosteric modulators of human D2 dopamine receptor | P14416 | hit rate 0.23% among 360,000 | potentiation, % (concentration not given with the values) | DiscoveRx D2 beta-arrestin cells, luminescence, 90 min; 100% = 57 uM dopamine signal | AID 624464; active = potentiation of 50% or more; inconclusive = 30% to 50%; inactive = 30% or less;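 note: compound concentration not given in the record; tested on top of an EC20 dose of dopamine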
#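 PathHunter beta-arrestin assay in DiscoveRx D2 cells. Compounds were added with an EC20 of dopamine (50 nM final) for 90 min at 37 deg C. Luminescence was read 1 h after detection reagent, with 57 uM dopamine as the EC100 control.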
# CtBP-E1A blk: CtBP/E1A binding inhibition | hit rate 0.49% among 340,000 | AID 651724 | activity change, % (no concentration beside the values) | AlphaScreen GST-E1A/His-CtBP binding, 1536-well; hits give low values; control for the full effect not named in the record; in the data active means activity change below about -65%; inconclusive means about -30% to -65%; inactive means above about -30%; note: % is set by controls: 0 for no effect and ±100 for the full control effect; compound concentration not given in the record
#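 GST-E1A and His-tagged CtBP (125 nM each as 5X stock) were preincubated with pin-transferred compound for 2 h at 37 °C in the dark, then glutathione donor and nickel acceptor beads were added for 1 h before AlphaScreen reading.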
# PINK1 expr mod: changes PINK1 expression; PINK1 immunofluorescence, high-content cytometry, 24 h; hit rate 0.2% among 410,000; Potency, µM (doses to about 76.6 µM), for inactives: at the top dose activation (PINK1 increase), most hits filed as activators; active = well fitted activation curve with a large enough effect; inconclusive = small, poorly fitted or top-dose-only effect; inactive = flat fitted curve, though single readings scatter; cell line not stated here;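 note: potency is the fitted concentration of half-maximal effect; % of control where 0% means no effect; nearly all actives have a fitted effect of over 65% in size; a mitochondrial uncoupler was the plate control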
#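 Compound titrations (5 concentrations, 24 h) on a stable cell line; DMSO and CCCP controls. Endpoint: fixed-cell PINK1 immunofluorescence with mitochondrial, cell and nuclear markers, scanned by microplate cytometer.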
# Starred values were filed as active, the others as inactive; u = inconclusive; x = no result given; & = joins results of further samples; [ ] = dose if it differs, or a comment. The order is random, and some 3.7% of all compounds hit somewhere here.
SMILES,Sfp PPTase inh,D2 agonist,Six1-Eya2 inh,TRPV1 potentiator,D2 potentiator,CtBP-E1A blk,PINK1 expr mod
O=C(COC(=O)Cc1ccccc1F)NCc1ccccc1Cl,x,-1.6,13,x,-4,3,0.1%
COc1ccccc1NC(=O)CCC(=O)Nc1nnc(C(F)(F)F)s1,20%,1.4,3,-1,-7,7,u
Cc1cc(N2CCN(c3ccccn3)CC2)n2nc(C)nc2n1,x,1.0,u,x,-9,u,2.0%
COc1ccc(-c2ccc3ccccc3n2)cc1OC,-3%,-1.5,6,3,9,-3,1.0%
O=C(COC(=O)C1CCCCC1)NCc1ccc(Cl)cc1,x,0.3,10,x,-4,7,3.8%
O=C(Nc1nc2ccccc2s1)C1CCCN1S(=O)(=O)c1ccc(Cl)cc1 (stereo not given),17%,6.5,0,-12,-7,-1,1.3%
COc1ccc(S(=O)(=O)N2CCCCCC2)cc1NC(=O)CN1C(=O)NC(C)(c2ccc(C)cc2)C1=O (stereo not given),x,6.3,-8,10,u,-8,2.4%
C=CCn1c(CNc2ccc(C)cc2)nnc1SCC(=O)N/N=C/c1ccc(O)cc1,-7%,-2.9,u,-9,-19,-17,1.1%
COc1ccc(Cl)cc1NC(=S)NCc1ccccn1,u,2.5,1,-12,-36,2,0.0%
S=C(Cc1ccccc1)Nc1ccccc1,x,-3.2,-2,x,17,6,7.7%
COC(=O)[C@@]1(Cc2ccccc2)[C@H]2C(=O)N(Cc3ccccc3)C(=O)[C@H]2[C@H]2CN=C(SCc3ccc(C#N)cc3)N21,x,-0.5,-11,x,4,15,0.5%
Cc1ccc(NC(=O)COC(=O)CNC(=O)c2cccc([N+](=O)[O-])c2)cc1S(=O)(=O)N1CCCCCC1,21%,0.9,10,19,-1,3,2.4%
Cc1cccc(OCC(=O)NCCNC(=O)c2ccccn2)c1,15%,-5.4,5,u,-1,5,-2.3%
COc1ccc(NC(=O)CSc2nnc(Cc3cccn3C)n2-c2ccc(F)cc2)cc1,7%,-0.8,-11,3,0,-7,-0.1%
Cc1ccc(S(=O)(=O)N2CCc3c2cc([N+](=O)[O-])cc3[N+](=O)[O-])cc1,-8%,u,-18,1,13,-15,2.9%
COc1ccc(NC(=O)CN(c2cc(C)cc(C)c2)S(=O)(=O)c2c(C)noc2C)cc1OC,-2%,1.0,-13,5,-4,-4,2.2%
c1nc2nc3c(c(N4CCOCC4)n2n1)CCCC3,10%,-1.2,1,-1,6,-1,2.8%
COc1ccc(-c2n[nH]c(=S)nc2-c2ccc(OC)cc2)cc1,-5%,13,-3,1,-7,-2,-3.1%
Cc1ccccc1CC(=O)N1CCCC(CNC(=O)c2ccc(F)cc2)C1 (stereo not given),7%,-0.2,4,6,0,4,1.3%
C=CCOC(=O)C1=C(C)NC(SC)=C(C#N)C1c1cccs1 (stereo not given),5%,-0.8,7,11,-4,10,4.9%
COc1ccc2cc(CCOC3CCCCO3)ncc2c1 (stereo not given),x,-0.3,8,0,-5,x,0.0%
Cc1ccc(S(=O)(=O)Nc2cc(Cl)ccc2-n2cncn2)cc1,x,-0.4,3,u,1,6,0.2%
O=C1c2ccccc2C(c2nnnn2Cc2ccccc2)N1Cc1cccs1 (stereo not given),x,x,3&10,x,x,1&8,0.2%&0.3%
CC(C)[C@H](NS(=O)(=O)c1cccc(Cl)c1)C(=O)OCC(=O)N1CCN(c2ccccc2)CC1,9%,1.0,-6,-10,-18,-15,1.2%
Cc1cc(NC(=O)c2noc3c2CCCC3)n(-c2ccccc2)n1,10%,-0.7,0,25,4,-3,-1.7%[38.3 µM]
COc1cccc(CNC(=O)CCC2CCCN(c3cc(C)nc(N)n3)C2)c1 (stereo not given),13%,0.4,-2,-13,-9,2,2.0%
COc1cc2c(cc1OC)CN(C(=O)CSc1n[nH]c(N)n1)CC2,20%,-2.5,-2,-33,-9,-3,-1.6%
CCOC(=O)C1(CCOc2ccccc2)CCN(Cc2cnc(C)s2)CC1,u,3.3,-3,-15,-10,3,2.0%
Cn1nc(C(=O)NCCN2CCOCC2)c2ccccc2c1=O,-5%,-3.8,2,-7,-7,16,-1.9%[38.3 µM]
O=c1nc2n(c3sc4c(c13)CCCC4)C(CBr)CS2 (stereo not given),-10%,-2.0,-13,2,-3,-4,-0.3%

# Three of the compounds above, as labelled records:
CC(C)[C@H](NS(=O)(=O)c1cccc(Cl)c1)C(=O)OCC(=O)N1CCN(c2ccccc2)CC1
- Sfp PPTase inh: 9%
- D2 agonist: 1.0
- Six1-Eya2 inh: -6
- TRPV1 potentiator: -10
- D2 potentiator: -18
- CtBP-E1A blk: -15
- PINK1 expr mod: 1.2%
COc1cc2c(cc1OC)CN(C(=O)CSc1n[nH]c(N)n1)CC2
- Sfp PPTase inh: 20%
- D2 agonist: -2.5
- Six1-Eya2 inh: -2
- TRPV1 potentiator: -33
- D2 potentiator: -9
- CtBP-E1A blk: -3
- PINK1 expr mod: -1.6%
COc1ccc2cc(CCOC3CCCCO3)ncc2c1 (stereo not given)
- Sfp PPTase inh: x
- D2 agonist: -0.3
- Six1-Eya2 inh: 8
- TRPV1 potentiator: 0
- D2 potentiator: -5
- CtBP-E1A blk: x
- PINK1 expr mod: 0.0%

# Carrying on.
SMILES,Sfp PPTase inh,D2 agonist,Six1-Eya2 inh,TRPV1 potentiator,D2 potentiator,CtBP-E1A blk,PINK1 expr mod
COc1ccc(OC)c(C(=O)CSc2nnc(Cc3cccs3)n2CCc2ccccc2)c1,16%,-1.1,-11,-6,-20,-20,-3.2%[38.3 µM]
C[C@H](CO)N1C[C@H](C)[C@@H](CN(C)Cc2ccncc2)OCc2cnnn2CCCC1=O,x,-0.1,1,x,x,1,0.3%
Cc1ccc(-c2cc(C(=O)NN=C3CCCC3)c3ccccc3n2)cc1,1%,-0.6,-4,8,-9,-4,0.4%
COc1ccc(N2C(=O)C(CC(=O)O)S/C2=N\N=C\c2cccs2)cc1 (stereo not given),19%,-5.5,1,0,-2,-7,5.6%
CCOc1ccccc1N=Cc1c(O)c2ccccc2oc1=O,14%,-7.1,5,-12,-2,-3,2.3%
CCOC(=O)Cn1ncc(-c2ccccc2)c1N,5%,-1.6,8,-6,20,2,u
CC1CC(C)CN(CC(=O)N2CCc3[nH]c4ccccc4c3C2)C1 (stereo not given),4%,2.9,-1,-2,-18,-2,-1.8%
CCN(CC(=O)Nc1ccc(NC(C)=O)cc1)C(=O)c1ccc(N2C(=O)c3ccccc3C2=O)cc1,x,-4.0,0,x,-3,x,-1.0%
CC(C)CC1CCCC12NC(=O)NC2=O (stereo not given),x,3.4,-1,x,-5,8,1.2%
Cc1cc(-c2n[nH]c(=S)n2/N=C/c2sccc2C)n[nH]1,u,-2.1,-15,3,-2,2,0.0%
COc1ccc(C)cc1NC(=O)c1cnc2n(c1=O)CCS2,8%,-1.4,0,15,-16,-10,9.5%[38.3 µM]
COc1ccc(N(C)C(=O)Cc2c(C(=O)O)n(C)c3ccccc23)c(OC)c1,14%,-3.1,-15,2,-7,4,0.6%
Cn1ccc2cc(OCc3ccccc3)ccc21,x,-1.3,2,x,-13,1,0.8%
Nc1cc(=O)[nH]c(SCC(=O)N2CCN(S(=O)(=O)c3ccc4ccccc4c3)CC2)n1,12%,-0.4,-2,3,-6,0,-1.3%
CC(=O)Oc1cc(C(C)C)c(OCCN(C)C)cc1C,-14%&9%,-6.9,3,6,-18,-16,2.5%
C=CCN=C1S/C(=C\N(C)C)C(=O)N1S(=O)(=O)c1ccc(C)cc1,x,4.9,0,x,-2,x,4.2%
CCOc1ccc(NC(=O)CNc2cccc(S(=O)(=O)N3CCCCCC3)c2)cc1OCC,x,-2.0,-15,x,-18,x,2.4%
O=C(OCc1cccc([N+](=O)[O-])c1)c1cc2ccccc2oc1=O,5%,-3.9,-8,29,-1,-3,3.8%
COC(=O)c1nnn(-c2nonc2N)c1-c1cccs1,3%,-1.0,7,1,-1,3,0.6%
Cn1c(N)c(C(=O)COC(=O)C2=COCCO2)c(=O)n(C)c1=O,0%,-2.7,21,-5,-10,0,-1.9%

# Six structures from above, arranged by heavy-atom count, ascending:
SMILES,Sfp PPTase inh,D2 agonist,Six1-Eya2 inh,TRPV1 potentiator,D2 potentiator,CtBP-E1A blk,PINK1 expr mod
CC(=O)Oc1cc(C(C)C)c(OCCN(C)C)cc1C,-14%&9%,-6.9,3,6,-18,-16,2.5%
COc1ccc(C)cc1NC(=O)c1cnc2n(c1=O)CCS2,8%,-1.4,0,15,-16,-10,9.5%[38.3 µM]
C=CCN=C1S/C(=C\N(C)C)C(=O)N1S(=O)(=O)c1ccc(C)cc1,x,4.9,0,x,-2,x,4.2%
COc1ccc(N(C)C(=O)Cc2c(C(=O)O)n(C)c3ccccc23)c(OC)c1,14%,-3.1,-15,2,-7,4,0.6%
Nc1cc(=O)[nH]c(SCC(=O)N2CCN(S(=O)(=O)c3ccc4ccccc4c3)CC2)n1,12%,-0.4,-2,3,-6,0,-1.3%
CCOc1ccc(NC(=O)CNc2cccc(S(=O)(=O)N3CCCCCC3)c2)cc1OCC,x,-2.0,-15,x,-18,x,2.4%

# (listing goes on)
SMILES,Sfp PPTase inh,D2 agonist,Six1-Eya2 inh,TRPV1 potentiator,D2 potentiator,CtBP-E1A blk,PINK1 expr mod
CCOc1ccc(-c2cc(C(=O)NCc3ccc(C(F)(F)F)cc3)[nH]n2)c(C)c1,x,2.2,2,x,-4,7,3.7%
O=C(NCc1ccc(OC(F)(F)F)cc1)C1CC(c2cccc(F)c2)=NO1 (stereo not given),7%,-0.3,11,22,3,9,2.2%
Cc1ccc(CCNC(=O)C2CCN(c3nn4c(=O)cc(C)nc4s3)CC2)cc1,28%,-0.2,0,3,-11,-16,0.3%
O=C(OCC(=O)c1ccc[nH]1)c1ccc(F)c(S(=O)(=O)N2CCOCC2)c1,x,0.5,3,x,-15,x,0.9%
Cc1ccc(C)c(NC(=O)C(Sc2ncnc3ccccc23)c2ccccc2)c1 (stereo not given),-4%,-3.1,9,u,4,-6,9.3%
CC(C)C(OC(=O)c1ccc(Cl)nc1)C(=O)NC1CCCCC1 (stereo not given),3%,2.0,70,20,-1,19,1.0%
CN(C)CCCN(Cc1cc2cc3c(cc2[nH]c1=O)OCO3)C(=S)NCc1ccco1,7%,-0.9,1,9,-4,-5,-0.1%
O=[N+]([O-])c1nn(-c2ccc3c(c2)OCCO3)n(O)c1=Nc1ccc(Cl)cc1,-19%,6.2,-20,18,51*,-14,2.6%[38.3 µM]
